Source: PubChem (National Center for Advancing Translational Sciences (NCATS))
Rango complex inh = qHTS Assay for Inhibitors of Rango (Ran-regulated importin-beta cargo) - Importin beta complex formation; 340,000 tested, 0.031% active; Importin subunit beta-1 (Homo sapiens), Q14974; Rango CFP/YFP FRET sensor + importin beta, 45 min; AID 540263, 2011; Potency, µM (titrated, usually from 92.2 µM), inactives show top-dose inhibition of complex formation; active = rising FRET ratio curve, often small or poorly fitted; inconclusive = mostly compound fluorescence or quenching in the first reads; inactive = flat curves in all reads;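 also: potency is read from the fitted curve at half-maximal effect; 0% = DMSO wells and 100% = buffer wells lacking importin beta; nearly all actives have a fitted effect of over 15% in size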
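FRET biosensor Rango (snurportin 1 IBB between N-terminal EYFP and C-terminal Cerulean), 50 nM in PBS/1 mM DTT/0.02% Tween-20/0.1% BSA, preincubated 5 min RT with compound; 0.125 microM importin beta added, 45 min RT, CFP/YFP FRET ratio read.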
miR-21 reporter = qHTS Assay for Modulators of miRNAs and/orActivators of miR-21; HeLa miR-21 FLuc reporter, luciferase, 48 h; Potency, µM (top dose mostly 38.3 µM), inactives show top-dose reporter change, positive = more light; 340,000 tested, under 10 active; AID 2288, 2010; active = well fitted rising curve with a large enough effect; inconclusive = small, poorly fitted or top-dose-only effect; inactive = no such curve, though single readings can be large or run the other way;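 also: % of control where 0% means no effect; miR-21 action dims this reporter so a rising signal means less miR-21 action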
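Using DMEM plus 10% FBS, HeLa miR-21-FLuc cells are incubated with test compounds (final up to about 40uM) for 48 hours; firefly luciferase signal is then imaged following reagent-mediated lysis.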
GLA inh pH 4.5 = qHTS Assay for Inhibitors of Human alpha-Galactosidase at pH 4.5; AID 1467, 2008; purified enzyme, 4-MU-alpha-Gal fluorescence, pH 4.5; 230,000 tested, under 10 active; activity change, negative = inhibition, % at 105 µM; inconclusive = small, poorly fitted or top-dose-only inhibition, or a rising curve; inactive = flat fitted curve, though single readings scatter; no compound was filed as active;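 also: 0% = full activity with enzyme and -100% = basal without enzyme; dose as in the result columns while the protocol names 77 µM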
Target sequence (P06280 whole entry, looked up): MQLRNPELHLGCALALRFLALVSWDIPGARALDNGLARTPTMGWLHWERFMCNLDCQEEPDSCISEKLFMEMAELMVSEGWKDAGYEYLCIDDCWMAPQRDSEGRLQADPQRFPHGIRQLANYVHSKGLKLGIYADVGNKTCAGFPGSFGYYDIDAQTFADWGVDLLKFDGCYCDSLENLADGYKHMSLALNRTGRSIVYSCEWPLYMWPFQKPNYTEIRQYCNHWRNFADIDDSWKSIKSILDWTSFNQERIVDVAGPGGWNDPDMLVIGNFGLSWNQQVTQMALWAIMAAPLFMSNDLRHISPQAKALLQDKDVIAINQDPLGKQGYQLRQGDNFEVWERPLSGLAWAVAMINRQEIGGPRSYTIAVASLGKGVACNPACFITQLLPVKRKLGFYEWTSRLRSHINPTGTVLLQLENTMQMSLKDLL
Rango dissoc inh = qHTS Assay for Inhibitors of RanGTP induced Rango (Ran-regulated importin-beta cargo) - Importin beta complex dissociation; Snurportin-1 (Homo sapiens) + GTP-binding nuclear protein Ran (Homo sapiens) + Importin …; Biochemical FRET Rango-importin beta, RanGTP-induced dissociation; Potency, µM (doses to about 46.1 µM), without a hit: top-dose activity change, negative = inhibition; 340,000 tested, 0.071% active; AID 540253, 2011; active means falling FRET ratio curve, often poorly fitted, with flat reads before Ran was added; inconclusive means other falling curves, or compound fluorescence or quenching; inactive means flat or rising ratio curve;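 also: potency is read from the fitted curve at half-maximal effect; % of control where 0% means no effect; nearly all actives have a fitted effect of over 45% in size; -100% = wells without RanGTP and RCC1; the record marks most hits as doubtful in a second field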
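Rango/importin beta premix (0.1/0.25 uM final), PBS + 1 mM DTT + 0.02% Tween-20 + 0.1% BSA; cpd 5 min RT; FRET pre-read; + RanGTP-RCC1 (0.6 uM Ran, 2 mM GTP, 0.2 uM RCC1); 45 min RT; FRET post-read, ex 430, em 486/530 nm.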
Active calls of the source: *; ? = inconclusive; / = no result given; & = joins results of further samples. These rows are one share of the data; the hit share may differ from the screen's.

Structure	GLA inh pH 4.5	miR-21 reporter	Rango complex inh	Rango dissoc inh
COc1ccc(OC)c(NC(=O)C2CC(=O)N(c3ccc(Br)cc3)C2)c1 (centres undefined)	-5	-7%	2.1%	8%
COCCCN1C(=O)C(=O)/C(=C(/O)c2ccc(S(=O)(=O)N3CCOCC3)cc2)C1c1ccc(C(C)C)cc1 (centres undefined)	/	0%	5.8%	?
CCC1(C)CC(=O)N(c2ccc(F)c(Cl)c2)C(=O)C1	/	0%	-2.1%	-6%
CCOc1ccccc1OCC(=O)Nc1ccccc1C(=O)NC1CC1	/	/	-3.7%	11%
CN(NC(=O)Nc1ccccc1)c1cnn(C)c(=O)c1Cl	-8	-1%	-4.4%	7%
O=C(OC1CCc2ccccc2C1=O)c1ccccc1O (centres undefined)	-4	-22%	-3.0%	-16%
COc1ccc(C(=O)OCC(=O)Nc2c(C)cccc2C)cc1	/	-1%	-0.7%	-9%
O=C(c1ccc2c(c1)CCN2S(=O)(=O)c1ccccc1)N1CCN(c2ccccc2F)CC1	/	-3%&1%	-2.7%	-11%
COc1ccc(NC(=O)C2CCN(S(=O)(=O)c3cccnc3)CC2)cc1Cl	-4	-6%	0.0%	0%
COc1ccc(O[C@H]2C=C[C@@H](c3ccccc3)O[C@@H]2CO/N=C(\C)CCC(=O)OC[C@H]2O[C@H](c3ccccc3)C=C[C@@H]2Oc2ccc(OC)cc2)cc1	3	-4%	/	/
COc1coc(C(O)C[N+](=O)[O-])cc1=O (centres undefined)	7	-2%	5.6%	4%
CC1CC(C)CN(C(=O)COC(=O)c2c[nH]c3ccccc23)C1 (centres undefined)	/	/	0.3%	1%
CCOc1ccc(Nc2nc(N)c([N+](=O)[O-])c(N3CCOCC3)n2)cc1	/	0%	-0.8%	0%
O=c1[nH]nc(Cc2ccc(-c3ccccc3Cl)o2)c2ccccc12	3	-17%	0.6%	0%
CCCNC(=S)NNC(=O)c1cccs1	-10	-1%	-0.1%	1%
CCOc1ccc(N2CC(C(=O)NCc3ccco3)CC2=O)cc1 (centres undefined)	/	0%	0.8%	-8%
COc1cc(OC)c2c(-c3ccccc3)cc(=O)oc2c1C(CCN1CCCC1)c1ccc2c(c1)OCO2 (centres undefined)	-2	17%	-1.7%	-4%
CCc1cccc(NC(=O)C2CCCN2S(=O)(=O)c2ccccc2C(F)(F)F)c1 (centres undefined)	/	/	2.5%	-20%
COC(=O)c1ccc(CN(Cc2ccc(C(=O)OC)o2)C(C)(C)C)o1	7	-8%	0.2%	10%
Cn1c(SCC(=O)N/N=C/c2cccnc2)nnc1-c1ccccc1	0	0%	?	4%
COc1cccc(CNC(=O)CSc2nnc3c(n2)[nH]c2ccc(F)cc23)c1	/	-2%	-0.6%	12%
CCc1nc2ccc(C(=O)NCc3ccccc3)cc2nc1CC	10	-15%	-3.9%	-14%
O=C(O)c1cc(=O)[nH]c2ccc(S(=O)(=O)Nc3ccc(F)cc3)cc12	/	0%	6.1%	-2%
Cc1cccc(C2Nc3ccccc3C(=O)N2c2ccccc2)n1 (centres undefined)	-4	-8%	-1.9%	-2%
CNC(=O)CS(=O)CC(=O)Nc1cc(OCCOC)c(Cl)cc1Cl (centres undefined)	1	3%	-3.5%	2%

Some of the entries above in another layout:
GLA inh pH 4.5,miR-21 reporter,Rango complex inh,Rango dissoc inh,SMILES
/,-1%,-0.7%,-9%,COc1ccc(C(=O)OCC(=O)Nc2c(C)cccc2C)cc1
3,-17%,0.6%,0%,O=c1[nH]nc(Cc2ccc(-c3ccccc3Cl)o2)c2ccccc12

Continued.
Structure	GLA inh pH 4.5	miR-21 reporter	Rango complex inh	Rango dissoc inh
O=C(c1cccs1)c1no[n+]([O-])c1C(=O)c1cccs1	0	-7%	7.9%	11%
Cn1c(C(=O)N2CCN(c3cccc(C(F)(F)F)c3)CC2)cc2sccc21	-3	-8%	-0.2%	-5%
CN(c1ccccc1)S(=O)(=O)c1cccc(C(=O)Nc2ccc(N3CCOCC3)cc2)c1	/	/	0.2%	5%
COc1ccc(C2(C)NC(=O)N(Cc3cc(Cl)cc4c3OCOC4)C2=O)cc1OC (centres undefined)	-6	1%	0.9%	1%
COc1ccc(CNC(=O)[C@@H](C)NC(=O)[C@@H]2Cc3ccccc3CN2)cc1	/	-1%	0.0%	18%
COc1cc(NC(=O)C/C(C)=N/NC(=O)Cc2ccccc2)c(OC)cc1Cl	5	-8%	0.2%	3%
O=C1Nc2ccccc2C1=Nc1ccc(Cl)cc1	/	-5%	-1.8%	0%
COC(=O)c1ccc(OC)c(NS(=O)(=O)c2ccc(-n3cnnn3)cc2)c1	/	2%	-1.3%	26%
CC(C)CN(C(=O)COC(=O)c1cc2ccccc2cc1O)c1c(N)n(Cc2ccccc2)c(=O)[nH]c1=O	/	/	-3.6%	2%
O=C(Nc1cccc(NC(=O)C2CC3CCCC(C2)C3=O)n1)C1CC2CCCC(C1)C2=O (centres undefined)	1	9%	-1.4%	-9%
COc1cccc(NC(=O)Cc2cccs2)c1	-6	-23%	-0.3%	-4%
CSCCC(C(=O)O)N1C(=O)c2ccc(C(=O)O)cc2C1=O (centres undefined)	-1	-1%	0.0%	-16%
CCOC(=O)c1sc2ncn(/N=C/c3ccccn3)c(=O)c2c1C	-18	-6%	/	/
O=C(CNC(=O)c1cccc(F)c1)N/N=C/c1cccnc1	/	-2%	2.5%	-14%
CCCCC(=O)N(Cc1ccc(-c2ccccc2-c2nn[nH]n2)cc1)[C@H](C(=O)O)C(C)C	-11	0%	/	/
Cc1ccc(S(=O)(=O)N2CCOCC2)cc1NC(=O)COC(=O)CNC(=O)c1ccc(Oc2ccccc2)cc1	9	3%	-0.6%	14%
c1ccc(CSCc2cn3ccccc3n2)cc1	-27	-32%	-1.1%	2%
O=S(=O)(Nc1ccc(C(F)(F)F)cn1)c1ccccc1	6	0%	0.8%	0%
CCCCCN1C=CC=C/C1=C\C=C(C#N)C#N	-27	0%	?	?
O=C(CNC(=O)c1ccc(Cl)cc1)NC(CO)c1ccccc1 (centres undefined)	/	1%	4.1%	25%
NCCNC(=O)Cn1c(=O)c2c3c(sc2n(Cc2ccccc2)c1=O)CCCC3	/	-1%	0.5%	15%
COC(=O)C1=COC(C)C2CN3CCc4c([nH]c5ccccc45)C3CC12 (centres undefined)	1	-3%	?	?
C/C(=N\OCC(=O)OCC(=O)Nc1cc(S(C)(=O)=O)ccc1Cl)c1ccc2c(c1)OCO2	/	/	3.9%	-13%
CN(C)C1=NCCN1CC1CCCCC1	/	/	0.6%	-8%
CNC(=O)c1cccc(NC(=O)c2ccccc2OCc2ccccc2)c1	/	3%	0.6%	16%

Compound profiles (already shown). Order of values: GLA inh pH 4.5	miR-21 reporter	Rango complex inh	Rango dissoc inh
Results for CCCCC(=O)N(Cc1ccc(-c2ccccc2-c2nn[nH]n2)cc1)[C@H](C(=O)O)C(C)C = -11	0%	/	/
Results for O=S(=O)(Nc1ccc(C(F)(F)F)cn1)c1ccccc1 = 6	0%	0.8%	0%

(listing goes on)
Structure	GLA inh pH 4.5	miR-21 reporter	Rango complex inh	Rango dissoc inh
CC(C)CNC(=O)CCCc1ccccc1	1	-23%	6.3%	0%
COc1ccc(OC)c(-c2csc(N(C)C(=O)c3ccco3)n2)c1	/	-10%	-5.5%	-11%
COc1ccc(NC(=O)C2CCCN(C(=O)c3ccc(Cl)cc3)C2)cc1Cl (centres undefined)	/	/	-0.3%	13%
CCOc1ccc(N(CC(=O)NCc2ccc3c(c2)OCO3)C(=O)c2csnn2)cc1	/	-24%	?	-2%
CCCN(CC1CC1)c1nc(N)c(C#N)c(CC#N)c1C#N	-6	-17%	?	-20%
O=C(Nc1nc2ccccc2s1)C1CC(=O)N(c2ccccc2)C1 (centres undefined)	-2	7%	2.3%	-4%
COc1ccc(OC)c(C(C(=O)NCc2ccco2)N(C(=O)Cn2nnc3ccccc32)C(C)C)c1 (centres undefined)	-3	-10%	-4.5%	2%
S=C(NCCN1CCOCC1)Nc1ccccc1Cl	-1	0%	0.6%	10%
C(=N\n1cnnc1)/c1cccs1	3	-1%	0.5%	-13%
Clc1ccccc1-c1nc2nc3ccccc3nc2n1-c1ccc2c(c1)OCO2	-8	6%	-2.3%	16%
COc1ccc2[nH]c(=O)c(CNc3cccc(C)c3)cc2c1	7	-38%	?	?
O=C(O)CSc1nc2ccccc2nc1Cc1ccccc1F	/	-9%	-0.9%	-16%
COc1ccc(S(=O)(=O)N2CCN(C(=O)CN3C(=O)NC(C)(c4ccc5ccccc5c4)C3=O)CC2)cc1 (centres undefined)	/	/	-2.5%	1%
Cn1cccc1CC(=O)N/N=C/C=C/c1ccccc1	1	-43%	-0.1%	-1%
COC(=O)c1ccc(C2C(C(=O)c3cc4ccccc4o3)=C(O)C(=O)N2c2cc(C)on2)cc1 (centres undefined)	/	-4%	?	-23%
Nc1nnc(CCCCCc2nnc(N)s2)s1	3	-3%	-0.6%	8%
O=C1CC(C(=O)N2CCc3ccccc32)CN1c1ccc(F)cc1 (centres undefined)	/	3%	-3.4%	13%
COc1ccc(CN(C)C(=O)COC(=O)c2cc([N+](=O)[O-])ccc2N2CCCC2)c(OC)c1OC	/	/	?	15%
Cc1cccc(C)c1NC(=O)CN(C)C(=O)c1cc([N+](=O)[O-])ccc1N1CCOCC1	/	-1%	-0.4%	-8%
CC(C)(C)NC(=O)CCN(/N=C/c1ccc([N+](=O)[O-])o1)C1=NS(=O)(=O)c2ccccc21	1	-8%	-2.7%	0%
COc1ccc(-c2cc(C(F)(F)F)nc(N3CCN(c4ccc(F)cc4)CC3)n2)cc1OC	-1	-8%	-0.1%	8%
Cc1c(N=C2SCC(=O)N2/N=C/c2ccccc2)c(=O)n(-c2ccccc2)n1C	4	0%	-1.3%	0%
OC(CN1C2=NCCN2c2ccccc21)c1ccc(Br)cc1 (centres undefined)	3	-2%	-2.5%	23%
Cc1cccc(NC(=O)CSc2nc(C)nc3c2c(=O)n(C)c(=O)n3C)c1	-11	-1%	-0.3%	0%
CC(C)C(C)(C#N)NC(=O)CSc1nnc(-c2ccccc2)o1 (centres undefined)	-5	-7%	-4.0%	-19%
CCC(=O)Nc1nc(NCc2ccccc2OC)n(-c2ccccc2)n1	/	-2%	-1.6%	1%
COC(=O)c1ccccc1NC(=O)c1ccc(COc2ccccc2)o1	0	-33%	0.4%	-2%
O=C(Nc1c2c(nn1-c1ccc(F)cc1)CS(=O)(=O)C2)c1ccc2c(c1)OCO2	/	-4%	0.2%	2%
O=C(c1cccs1)N1CCCC(c2nc(-c3ccc(F)cc3)no2)C1 (centres undefined)	2	-30%	8.4%	-17%
CCOC(=O)C1CCCCN1C(=O)CCc1c(C)nc2ncnn2c1C (centres undefined)	4	-1%	-6.5%	3%
O=C(CN1CCCC1)Nc1ccc(Cl)cc1C(F)(F)F	-8	0%	5.3%	-8%
CC(=O)N1c2ccccc2Sc2ccccc21	/	-6%	?	18%
COc1cccc(/C=N/NC(=S)NC2CC3CC2C2C=CCC32)c1O (centres undefined)	-3	-2%	-4.3%	-10%
CS(=O)(=O)N1CCCC(C(=O)NCc2ccccc2Cl)C1 (centres undefined)	-5	-8%	0.2%	-11%
CCOC(=O)c1nnsc1NC(=O)Nc1ccc(OC)cc1	7	-2%	?	0%
CCOC(=O)C1CCN(C(=O)c2ccc(NS(=O)(=O)c3ccc(F)cc3C)cc2)CC1	-1	-3%	-0.3%	2%
